# Screening data as filed in PubChem.
# NPYLR7 ag – agonists of mosquito NPYLR7 receptor, primary screen, cell-based, Aedes aegypti, calcium fluorescence, mosquito biting behavior; 0.15% of 270,000 active; Aedes aegypti neuropeptide Y-like receptor 7 (NPYLR7); AID 1259423, 2018; activation, % at 10 µM; HEK293T NPYLR7/Galpha15, GCaMP6s calcium fluorescence; in the data active means activation above about 40%;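 further: 0% = vehicle and 100% = reference agonist at the receptor; some compounds past the cut are filed as inactive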
# NPYLR7 ag max-min – further read-out of NPYLR7 ag, marked with its call; activation, %; measured here: Max-Min RFU normalised activation; some inactives read as strong as hits;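 span of the calcium signal over five minutes; 0% = vehicle and 100% = native peptide agonist; compound fluorescence can raise it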
# * hit, by the source's call; & = joins results of further samples. Only part of the results is shown, so the mix of outcomes need not match the whole.
SMILES	NPYLR7 ag	NPYLR7 ag max-min
CC1(C(=O)NS(=O)(=O)c2ccc3c(c2)CCO3)CCN1C(=O)C1(c2ccc(Cl)cc2)CC1 (centres undefined)	1	-1
CCOc1ccc2ccccc2c1C(=O)Nn1cnc2c(cnn2-c2ccccc2)c1=O	5	4
C=C1C(=O)O[C@@H]2C3=C(C)CCC[C@]3(C)CC[C@@]12O	-6	-14
Cn1cc(C(=O)NC(COc2ccccc2F)C(C)(C)C)ccc1=O (centres undefined)	5	3
CC(O)=Cc1nc(=O)c2c(C)cc(C)nc2n1-c1ccccc1	-7	-7
CCC(CC)NC(=O)CN1CCCC(C)(CO)C1 (centres undefined)	-3	-6
CCn1c(-c2cccnc2)nc2cc(NC(=O)COC)cc(C(=O)N3CCCC(OC)C3)c21 (centres undefined)	17	2
CCCn1cnnc1Cn1cnc(-c2ccccc2)c1-c1cn(CC)nc1C	-2	-2
COc1cccc(-c2nccn2-c2ccc3cn[nH]c3c2)c1OC	1	-1
COc1ccc(-c2cc(CC#N)no2)cc1OC	3	0
Cc1ccc(-n2nnc(C(=O)OCc3nc(-c4ccc(OC(C)C)cc4)oc3C)c2C)cc1	10	6
Cc1ccc(C(=O)Nc2cccc(C(=O)O)c2)cc1S(=O)(=O)N1CCCCC1	1	-3
CCc1ccc(-c2nn(CC(=O)Nc3ccc(C(N)=O)cc3)c(=O)c3nc(C)sc23)cc1	-1	-4
C=CCc1cccc(C=NNC(=O)c2ccccc2O)c1O	6	5
CC(=NNc1nc2ccccc2[nH]1)c1ccc(C)o1	15	9
Cn1cc(C(=O)Nc2ccccc2)c2[nH]c(=O)n(Cc3ccccc3)c(=O)c21	3	1
Cc1cccc(Cn2cccc2CN(CCN2CCOCC2)Cc2ccc([N+](=O)[O-])cc2)c1	0	2
O=C(NCC1CCCN(Cc2cccc(-c3ccco3)c2)C1)c1cccs1 (centres undefined)	-7	-9
CCN(CC)CC(=O)NCC1(C)CCCCC1O (centres undefined)	-2	-6
COc1ccc(OC)c(S(=O)(=O)N2CCN(C(=O)Nc3ccccc3)CC2)c1	18	6
COc1ccc(NC(=O)Nc2ccc(Nc3cc(-n4ccnc4)nc(C)n3)cc2)c(C)c1	-12	-20
CC(=NNC(=O)Cc1cn2ccsc2n1)c1ccc(Cl)s1	-3	-5
Cc1ccc(-c2nn(-c3cccc(F)c3)cc2CN2CCCC(c3nncn3C)C2)o1 (centres undefined)	3	0
Cc1ccc(-n2c(C(C)N(CCc3ccccc3)C(=O)c3ccc(Br)cc3)nc3ccccc3c2=O)cc1 (centres undefined)	8	3
O=C(NC1CCN(Cc2ccccc2)CC1)C1COc2ccccc2O1 (centres undefined)	1	0
Cn1cccc1C(=O)N1CCC(n2c(Cc3ccccc3)nc3ccccc32)CC1	3	14
CN(Cc1cccc2cccnc12)C(=O)c1cn(CC2CCCNC2)nn1 (centres undefined)	17	5
O=C(Nc1ccc(C2SCC(=O)N2c2ccc(F)cc2)cc1)c1ccc2c(c1)OCO2 (centres undefined)	27	26
c1nc(NCc2ccsc2)c2[nH]cnc2n1	2	-8
O=C(O)C1C2CCC(CC2)C1C(=O)Nc1cnn(Cc2cccc3ccccc23)c1 (centres undefined)	-3	-5
C=c1ccccc1=C1NN=C(SCC(=O)C23CC4CC(CC(C4)C2)C3)O1	10	5
O=C(Nc1ccccc1F)NC1C2COCC1CN(CC1CC1)C2 (centres undefined)	28	19
CN1C(=O)C(=Cc2ccccc2OCc2ccccc2F)C(=O)N(C)C1=O	3	3
CC(C)n1cnnc1SCc1ccc(C#N)cc1	0	-1
CCn1c(C2CCCN(C(=O)NC(C)(C)CC(C)(C)C)C2)nn(C)c1=O (centres undefined)	0	1
Cc1cnccc1CN(C)C(=O)c1ccc(Cn2cnnn2)cc1	-1	-4
Cc1ccc(S(=O)(=O)CC2CSc3nnc(C)c(=O)n32)cc1 (centres undefined)	-4	-7
Cc1ccc(NC(=O)c2c(-c3ccccc3)noc2C)nc1	-7	-15
CCCCCN(CC(=O)Nc1cc(C(C)(C)C)nn1-c1ccc(OC)cc1)C(=O)Nc1ccc(OC)cc1OC	19	18
CC1CCN(S(=O)(=O)c2cc(Cl)sc2Cl)CC(C)(C)C1 (centres undefined)	-3	-6
CN(C)CCCN(C(=O)c1cccc([N+](=O)[O-])c1)c1nc2ccccc2s1	0	-5
COc1ccc(CNC(=O)C2CC(=O)N(N(C)c3ccccc3)C2)cc1 (centres undefined)	-7	-16
CCc1ccc(NC(=O)N2CCC3(CC2)NC(=O)c2cc(Br)ccc2N3)cc1	-3	5
O=C(CCN1Cc2ccccc2C1=O)Nc1cnc2n1CCCC2	8	8
CCOC(=O)C1(CCCc2ccccc2)CCN(C(=O)Nc2ccc3c(c2)OCO3)CC1	5	2
CCN(CC1CCCO1)C(=O)c1ccc2ncsc2c1 (centres undefined)	4	5
CC(C)(CNC(=O)C1CCCN(CC(N)=O)C1)N1CCc2ccccc2C1 (centres undefined)	13	3
CS(=O)(=O)N1CCc2ccccc2C1	11	9
CCN(CC(C)C#N)C(=O)Cc1ccc(CC(C)C)cc1 (centres undefined)	7	6
Cc1nn(C)c2n[nH]c(NC(=O)C3CC3c3cccc(F)c3)c12 (centres undefined)	0	-1
O=C1C(=Cc2ccc3c(c2)OCO3)CCC1=Cc1ccc2c(c1)OCO2	-10	-17
CCCc1ncncc1C(=O)N1CCc2[nH]nc(-c3ccccc3F)c2C1	0	-1
CCc1nc(C)sc1CNC(=O)c1cc(COc2ccccc2)[nH]n1	5	7
Cc1cc(C(=O)N(C)CC2=CCCN(C[C@@H](O)CO)C2)c(C)o1	8	5
CCCc1ncc(C(=O)NC2CCS(=O)(=O)CC2)s1	2	1
Cc1noc(CNc2ccc(OCc3ccccc3F)cc2)n1	3	1
O=C(NCCn1cc(SCC(=O)N2CCOCC2)c2ccccc21)c1ccc(F)cc1	-3	-3
COc1ccc(OC)c(NC(=O)CSc2nc(=O)n3ccccc3n2)c1	-2	-4
Cc1cccc(C(=O)NC(C)C(=O)Nc2n[nH]c(C)n2)c1 (centres undefined)	7	3
COc1ccc(/C=C/C2=NC(=C\c3ccccc3F)/C(=O)O2)cc1	-2	-3

# Reprinted from the results shown for reference:
SMILES	NPYLR7 ag	NPYLR7 ag max-min
Cc1ccc(S(=O)(=O)CC2CSc3nnc(C)c(=O)n32)cc1 (centres undefined)	-4	-7
Cc1ccc(NC(=O)c2c(-c3ccccc3)noc2C)nc1	-7	-15
CCCCCN(CC(=O)Nc1cc(C(C)(C)C)nn1-c1ccc(OC)cc1)C(=O)Nc1ccc(OC)cc1OC	19	18
CC1CCN(S(=O)(=O)c2cc(Cl)sc2Cl)CC(C)(C)C1 (centres undefined)	-3	-6
CN(C)CCCN(C(=O)c1cccc([N+](=O)[O-])c1)c1nc2ccccc2s1	0	-5
COc1ccc(CNC(=O)C2CC(=O)N(N(C)c3ccccc3)C2)cc1 (centres undefined)	-7	-16
CCc1ccc(NC(=O)N2CCC3(CC2)NC(=O)c2cc(Br)ccc2N3)cc1	-3	5
O=C(CCN1Cc2ccccc2C1=O)Nc1cnc2n1CCCC2	8	8
CCOC(=O)C1(CCCc2ccccc2)CCN(C(=O)Nc2ccc3c(c2)OCO3)CC1	5	2
CCN(CC1CCCO1)C(=O)c1ccc2ncsc2c1 (centres undefined)	4	5
CC(C)(CNC(=O)C1CCCN(CC(N)=O)C1)N1CCc2ccccc2C1 (centres undefined)	13	3
CS(=O)(=O)N1CCc2ccccc2C1	11	9
CCN(CC(C)C#N)C(=O)Cc1ccc(CC(C)C)cc1 (centres undefined)	7	6
Cc1nn(C)c2n[nH]c(NC(=O)C3CC3c3cccc(F)c3)c12 (centres undefined)	0	-1
O=C1C(=Cc2ccc3c(c2)OCO3)CCC1=Cc1ccc2c(c1)OCO2	-10	-17
CCCc1ncncc1C(=O)N1CCc2[nH]nc(-c3ccccc3F)c2C1	0	-1
CCc1nc(C)sc1CNC(=O)c1cc(COc2ccccc2)[nH]n1	5	7
Cc1cc(C(=O)N(C)CC2=CCCN(C[C@@H](O)CO)C2)c(C)o1	8	5
CCCc1ncc(C(=O)NC2CCS(=O)(=O)CC2)s1	2	1
Cc1noc(CNc2ccc(OCc3ccccc3F)cc2)n1	3	1
O=C(NCCn1cc(SCC(=O)N2CCOCC2)c2ccccc21)c1ccc(F)cc1	-3	-3
COc1ccc(OC)c(NC(=O)CSc2nc(=O)n3ccccc3n2)c1	-2	-4
Cc1cccc(C(=O)NC(C)C(=O)Nc2n[nH]c(C)n2)c1 (centres undefined)	7	3
COc1ccc(/C=C/C2=NC(=C\c3ccccc3F)/C(=O)O2)cc1	-2	-3

# (further entries)
SMILES	NPYLR7 ag	NPYLR7 ag max-min
Cc1cc2c(cc1CN1CCCCC1CCN1CCN(C)CC1)OCO2 (centres undefined)	0	-1
CC(=O)Nc1c(C)ccc(NC(=O)CC2(C(=O)O)CCSC2)c1C (centres undefined)	4&-5	3&-4
CCCCn1nnnc1NCc1ccc(N2CCCC2)cc1	2	0
COc1ccc(NC(=O)Cn2cc(OC)c(=O)cc2CSc2ncccn2)c(OC)c1	-1	-4
CNC(=O)[C@H]1C[C@]2(CCCCN(C)C2=O)N(S(=O)(=O)c2cccs2)[C@H]1c1ccco1	3	8
CCOc1ccc(-n2c(CNC(=O)c3ccc(S(=O)(=O)N4CCCC4)cc3)nnc2SCC(=O)N2CCc3ccccc32)cc1	8	7
O=C(CN(CCc1c[nH]c2ccccc12)S(=O)(=O)c1ccccc1)NC1CCCCC1	-6	-9
Cc1ccc(NC(=O)C2CCCN2C(=O)c2ccco2)nc1 (centres undefined)	-1	-2
COc1ccc(-c2[nH]ncc2CN2CCN(C3CCCC3)C(CCO)C2)cc1 (centres undefined)	7&4	4&0
CC1CN(Cc2nc(N3CCOC(C)C3)c3cnn(C)c3n2)CCO1 (centres undefined)	-1	-1
Cc1cc(C)cc(Nc2cc(Cl)nc(N)n2)c1	0	35
Cc1ccc(-n2c(C)cn3c4c(=O)n(CCN5CCCCC5)c(=O)n(C)c4nc23)cc1C	-3	20
Cn1c(N)c(C(=O)CSc2nnc(NC3CC3)s2)c(=O)[nH]c1=O	12	12
Cn1c(C(=O)NCCCN2CCOCC2)cc2c(=O)n3ccccc3nc21	0	-1
CCOC(=O)c1nn(CCC(F)(F)F)c2c1CN(C(=O)CCc1ccc3c(c1)OCO3)CC2	11	5
COc1ccccc1CN(CCc1c[nH]c2ccccc12)Cc1nc(C(=O)NCCN2CCOCC2)co1	9	17
COc1ccc(S(=O)(=O)N2CCc3ccccc3C2)cc1N1CCN(S(=O)(=O)c2ccc(F)c(Cl)c2)CC1	0	-3
CNS(=O)(=O)c1ccc(CNC(=O)C2(c3cccc(Cl)c3)CCCC2)cc1	-2	-4
COc1ccc(-c2[nH]ncc2CN(CC2CCC2)CC2CCCO2)c(OC)c1 (centres undefined)	1&-4	-2&-4
O=C(Nc1cccc(-c2cscn2)c1)C1CCN(C/C=C/c2ccc(F)cc2)CC1	4	1

# Individual results from the list:
# Under NPYLR7 ag max-min, `CC1(C(=O)NS(=O)(=O)c2ccc3c(c2)CCO3)CCN1C(=O)C1(c2ccc(Cl)cc2)CC1` (centres undefined) is listed with -1
# Under NPYLR7 ag, `Cc1ccc(-n2c(C)cn3c4c(=O)n(CCN5CCCCC5)c(=O)n(C)c4nc23)cc1C` is listed with -3

# (continued)
SMILES	NPYLR7 ag	NPYLR7 ag max-min
CCN1C[C@H]2[C@@H](c3ccc(F)c(Cl)c3)N[C@@](CC)(CO)[C@H]2C1	14	8
CC(C)N1CC(C(=O)NCCSCc2ccsc2)CC1=O (centres undefined)	8	6
Cc1cc(C(=O)N(Cc2ccccn2)c2nc3c(C)ccc(C)c3s2)on1	9	9
COCCn1c(SCCC#N)nc2sc3c(c2c1=O)CCCC3	0	10
Cc1c(C(=O)NC(C)(C)C(=O)N(C)C)nnn1-c1cccc2cccnc12	7	3
CCc1ccc(C(=O)CSc2nnc(C3CC3)n2C2CC2)s1	2	7
CCOc1ncccc1C(=O)N1CCCN(C(=O)c2ccco2)CC1	-1	6
COc1ccccc1CN(Cc1ccc(F)cc1)CC(O)COCC(C)C (centres undefined)	29	31
CCc1c(C)cc(C(=O)NCc2cc(-c3ccco3)on2)c(=O)n1C	0	-4
CC(=O)Nc1cccc(C(=O)N2CCOC(Cc3ccccc3)C2)c1 (centres undefined)	-4	-5
CCOC(=O)C(O)(c1ccc(N(C)C(=O)OC(C)C)cc1)C(F)(F)F (centres undefined)	4	4
Cc1cc(C)n(CCCNC2CCN(S(C)(=O)=O)CC2)n1	2	4
CCN(C(=O)NCCc1ccc(C)nc1)C(C)CS(C)(=O)=O (centres undefined)	3	5
